HNF4A DNA FP: change in binding of human HNF4 alpha to DNA | actives 0.3% (n = 360,000) | HNF4a-FITC DNA binding, fluorescence polarization, 1 h | activity change, % at 10 µM; in the data active = activity change above about 30%, passing the limit was not always enough;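 also: controls were the assay level and a saturating level of protein; the project sought stronger binding though the title names inhibitors; some compounds called inactive have numbers as strong as hits; positive values seem to mean higher polarization but the record does not say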
Target sequence (P41235 whole entry, looked up): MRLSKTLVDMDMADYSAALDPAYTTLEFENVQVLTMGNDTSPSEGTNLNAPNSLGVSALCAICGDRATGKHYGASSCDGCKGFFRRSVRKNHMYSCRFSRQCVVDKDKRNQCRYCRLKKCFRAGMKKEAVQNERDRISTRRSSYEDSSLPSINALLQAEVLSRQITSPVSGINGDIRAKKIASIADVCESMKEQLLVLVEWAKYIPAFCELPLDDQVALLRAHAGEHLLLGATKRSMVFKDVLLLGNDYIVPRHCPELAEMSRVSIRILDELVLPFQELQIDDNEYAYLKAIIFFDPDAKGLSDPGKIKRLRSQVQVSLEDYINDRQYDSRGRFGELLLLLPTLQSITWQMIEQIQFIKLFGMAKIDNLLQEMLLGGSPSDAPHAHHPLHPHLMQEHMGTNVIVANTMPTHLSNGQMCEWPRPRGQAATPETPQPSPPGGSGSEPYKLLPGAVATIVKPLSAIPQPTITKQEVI
Calb FLC: affects C. albicans growth with fluconazole. C. albicans CaCi-2 (fluconazole-resistant clinical isolate) + fluconazole, Alamar Blue growth, 48 h. growth inhibition, % (concentration not given with the values). actives 0.57% (n = 300,000);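 active = most replicates above 75%; inconclusive = exactly half above 75%; inactive = most below 75%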;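 also: all wells also contain fluconazole at 8 µg/ml as a sub-toxic cotreatment; 0% = median of DMSO wells and 100% = median of geldanamycin control wells; wells of about 8 µL received 7.5 nL stock; the first replicate is given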
LANA-H2B inh: blocks KSHV LANA binding to histone H2A/H2B. cell-free LANA-H2A/H2B peptide, fluorescence polarization. inhibition, % (concentration not given with the values). actives 0.6% (n = 320,000); in the data active = inhibition mostly above about 10%, no sharp cut-off; inactive = mostly below about 6.7%;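 also: stock transfer was 7.5 nL into about 10 µL; 0% = median of vehicle wells and 100% = median of positive control wells; one replicate is shown; the record names a cut of 25% in any replicate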
Vif TR-FRET: inhibitors of Vif binding to APOBEC3G peptide, primary screen, biochemical, TR-FRET, GST-Vif 1-94, biotin-A3G peptide, dose response retest (AID 1117319). TR-FRET GST-Vif / biotin-A3G peptide binding; higher % means a stronger effect; test concentration not given here; strong numbers were not always called active. inhibition, %, or IC50 in µM where a hit was titrated. actives 0.57% (n = 260,000);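 active = above the screen mean plus three standard deviations and confirmed in dose response; inconclusive = results disagree or hit not tested in dose response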;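 also: Vif residues 1-94 fused to GST binding biotinylated APOBEC3G peptide 110-148; 0% = full assay without inhibitor and 100% = GST in place of GST-Vif; retest series ran down from 100 µM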
ALR inh: inhibitors of human sulfhydryl oxidase ALR; P55789; purified ALR, DTT oxidation, H2O2 HRP-luminol luminescence; inhibition, % (test concentration not listed); actives 3.8% (n = 290,000); AID 485317;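 active = mean and each replicate at 75% or more; inconclusive = only one of the two met; inactive = neither met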;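 also: stock transfer was 7.5 nL into about 7.5 µL; 0% = neutral wells and 100% = wells with inactivated enzyme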
Target sequence (P55789 whole entry, looked up): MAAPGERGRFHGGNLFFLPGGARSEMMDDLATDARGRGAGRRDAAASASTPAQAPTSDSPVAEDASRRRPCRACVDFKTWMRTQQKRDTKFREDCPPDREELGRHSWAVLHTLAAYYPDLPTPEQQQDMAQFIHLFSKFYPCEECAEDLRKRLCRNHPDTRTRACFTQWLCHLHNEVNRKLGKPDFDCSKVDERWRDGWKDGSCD
Beta2AR agonist: agonists of human beta-2 adrenergic receptor inducing internalization | P07550 | Am2.2-beta2AR cells, FAP receptor internalization, flow cytometry; reference of the scale not given here | response, % (no concentration beside the values) | actives 0.43% (n = 340,000);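 active = response above a set limit, near 3 SD of response in nonfluorescent compounds, cut at about 42% in these data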;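 also: stock transfer was 100 nL into about 11 µL; a reference agonist was the positive control; negative values mostly stem from fluorescent compounds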
Target sequence (P07550 whole entry, looked up): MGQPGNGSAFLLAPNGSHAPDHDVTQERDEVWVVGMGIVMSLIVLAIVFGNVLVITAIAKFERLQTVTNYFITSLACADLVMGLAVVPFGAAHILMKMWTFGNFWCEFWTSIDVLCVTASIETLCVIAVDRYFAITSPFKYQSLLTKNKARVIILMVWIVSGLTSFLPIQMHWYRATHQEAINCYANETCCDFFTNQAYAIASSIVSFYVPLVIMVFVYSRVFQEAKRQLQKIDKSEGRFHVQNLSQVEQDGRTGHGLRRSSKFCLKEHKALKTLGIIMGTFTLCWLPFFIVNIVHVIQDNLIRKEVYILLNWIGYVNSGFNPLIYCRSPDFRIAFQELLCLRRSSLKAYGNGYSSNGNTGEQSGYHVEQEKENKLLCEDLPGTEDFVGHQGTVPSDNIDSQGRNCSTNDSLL
RanGTP-Impb inh: inhibitors of RanGTP-importin-beta interaction, primary screen, biochemical, FRET, CFP-Ran, YFP-importin-beta, homogeneous. cell-free CFP-Ran/YFP-importin-beta FRET ratio. actives 1.1% (n = 300,000). inhibition, % (no concentration beside the values). AID 2216;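 active = most replicates above 15%; inconclusive = exactly half above 15%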;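 also: 0% = DMSO wells and 100% = Ran loaded with GDP instead of GTP; wells of about 40 µL received 100 nL stock; the first replicate is given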
The depositor's hits bear a star; ? = inconclusive; . = not tested or not shown; & = joins results of further samples.

SMILES,HNF4A DNA FP,Calb FLC,LANA-H2B inh,Vif TR-FRET,ALR inh,Beta2AR agonist,RanGTP-Impb inh
CCC(CC)C(=O)NCCN1CCN(C(=O)C(CC)CC)CC1,0.8,1,0.3,-1%,-2,3,-3.9
CC(C)(C)C(=O)c1cnc(Nc2ccccc2)s1,0.2,0,54*,1%,19,-6,0.8
COc1ccc(CC(C)CC(=O)NCCc2ccc(OC)c(OC)c2)cc1 (centres undefined),-1.2,-5,-3.9,-4%,-8,-2,-0.5
C/C(=N/NC(=O)CCc1c(C)n[nH]c1C)c1cccc([N+](=O)[O-])c1,0.0,0,-1.5,3%,-9,-1,-1.8
O=Cc1ccc(O)cc1O,2.0,24,6.9,.,-18,2,4.7
CC(C)c1ccc(NC(=O)CNCC(c2ccccc2)N(C)C)cc1 (centres undefined),-4.4,-3,1.0,-8%,2,-8,6.7
CCOC(=O)c1c(C)[nH]c(C)c1C(=O)CSc1nc2ccccc2c(=O)n1-c1ccc(CC)cc1,-2.8,-16,-2.9,3%,-19,6,8.0
O=C(Cn1c(=O)c2cccn2c2cccnc21)NCCCN1CCN(c2ccc(F)cc2)CC1,0.5,-4,5.6,.,19,-4,32*
Cn1c(=O)c2cc(S(=O)(=O)NCCC(=O)NCc3ccccc3Cl)ccc2n(C)c1=O,1.5,-2,-1.3,7%&9%,-7,3,-1.9
O=C1CN(C(=O)COC(=O)CCS(=O)(=O)c2ccccc2)c2ccccc2N1,-1.4,.,-244,4%,0,4,.

3 of the entries above in order of their number in Beta2AR agonist, highest first:
SMILES	Beta2AR agonist
CCC(CC)C(=O)NCCN1CCN(C(=O)C(CC)CC)CC1	3
C/C(=N/NC(=O)CCc1c(C)n[nH]c1C)c1cccc([N+](=O)[O-])c1	-1
CC(C)c1ccc(NC(=O)CNCC(c2ccccc2)N(C)C)cc1 (centres undefined)	-8

The list goes on:
SMILES,HNF4A DNA FP,Calb FLC,LANA-H2B inh,Vif TR-FRET,ALR inh,Beta2AR agonist,RanGTP-Impb inh
Clc1ccc(-n2nnnc2-c2ccno2)cc1,-0.7,-17,4.1,2%,4,-4,-2.2
O=C(Nc1ccn(C2CC(OC(=O)c3ccccc3)C(CO)O2)c(=O)n1)c1ccccc1 (centres undefined),-1.3,18,-0.8,-11%,-2,-2,-1.5
CC1(C)CC(=O)C(C=NCCN2CCNC2=O)=C(O)C1,3.1,-5,-7.4,-3%,-8,0,-2.8
CCOC(=O)c1c(C2CC2)csc1NC(=O)COC(=O)c1cnc(Cl)c(Cl)c1,-1.3,-8,-5.0,.,-11,16,0.4
O=C(NCc1ccccc1Cl)C(=O)NCC1OCCN1S(=O)(=O)c1cccs1 (centres undefined),-1.2,-7,3.5,-13%,-8,-9,2.3
Cc1ccc(-n2c(CCC(=O)O)ccc2-c2cccs2)cc1C,2.8,4,-1.0,21%,.,2,6.0
CC(=O)N/N=C(\C)CC(=O)Nc1cccc(C(F)(F)F)c1,0.2,-5,2.9,.,4,5,4.4
CCOc1ccccc1C(=O)N[C@H](C(=O)OCc1cc([N+](=O)[O-])cc2c1OCOC2)C(C)C,-0.8,-2,4.2,-6%,1,-4,-3.0
COc1cc2c(cc1NC(=O)CSc1ccc(C)cc1)oc1ccccc12,2.0,-13,-4.4,-1%,-6,-1,-1.1
COc1ccc(COc2cc(-c3cccc(OC)c3)nc3ccc(NC(=O)c4ccc(OC)cc4)cc23)cc1,-3.0,-7,0.8,19%,-21,-1,-0.5

Continued:
SMILES,HNF4A DNA FP,Calb FLC,LANA-H2B inh,Vif TR-FRET,ALR inh,Beta2AR agonist,RanGTP-Impb inh
COc1ccc(C(=O)CSc2nnc(-c3cc4ccccc4cc3O)n2Cc2ccco2)cc1,-2.0,2,-2.4,5%,.,2,-4.1
O=C(CC12CC3CC(CC(C3)C1)C2)NCc1ccccc1,0.4,-9,-1.4,0%,-4,6,-1.9
COc1ccc2c(c1)OC[C@H]1[C@H]2N2C(=O)c3cc(OC)c(OC)cc3NC(=O)[C@@]2(C)[C@H]1c1ccccc1,3.4,.,4.0,.,-7,2,.
Cc1ccc2c(c1)[C@H]1[C@H](CO2)[C@H](c2ccccc2)[C@]2(C)C(=O)N(CC3CCCO3)CC(=O)N12 (some centres undefined),3.9,.,2.2,.,-4,-9,.
CCn1c(=O)n(CC)c2cc(NS(=O)(=O)c3ccccc3)ccc21,1.2,-4,6.5,4%,1,5,1.0
Cc1ccc(S(=O)(=O)/N=C(\N)Nc2nc(C)c3ccccc3n2)cc1,1.5,-6,-2.0,-3%,-3,-1,2.6
CCN(CC(=O)NCc1ccc(Cl)cc1)C(=O)CCOc1ccc(C)cc1,-0.2,-1,0.6,11%,1,-2,.
O=C(NCCc1ccccc1)C1CCC(CNS(=O)(=O)c2ccc(F)cc2)CC1 (centres undefined),-4.5,-3,4.1,.,2,6,-2.7
CCc1ccccc1NC(=S)N(CCN1CCOCC1)Cc1ccccc1F,-1.3,2,-8.7,2%,0,-2,0.2
Cc1cccc(N2C(=O)C(O)=C(C(=O)c3cccs3)C2c2ccc(F)cc2)n1 (centres undefined),0.5,?,0.2,-31%,4,1,1.2

(continued)
SMILES,HNF4A DNA FP,Calb FLC,LANA-H2B inh,Vif TR-FRET,ALR inh,Beta2AR agonist,RanGTP-Impb inh
O=C(Nc1ccc2snnc2c1)N1CCN(c2ccccc2)CC1,-0.4,-5,-2.6,20%,99*,-12,2.6
CCN1CCN(CCn2c(=S)[nH]c3ccccc3c2=O)CC1,0.6,5,-0.6,?,8,-20,-1.9
C[C@H](NC(=O)c1nc[nH]c1C(=O)N[C@@H](CCCCNC(=O)OC(C)(C)C)C(=O)OC(C)(C)C)c1ccccc1,-2.4,15,1.6,5%,-5,4,-3.7
O=C(NCc1ccccc1)c1ccccc1-c1nc2ccccc2[nH]1,4.0,6,-1.2,-9%,-7,23,.
CC1CCc2ccc(F)cc2N1S(=O)(=O)c1cccs1 (centres undefined),2.0,12,1.6,13%,-19,5,2.4
O=C(COC(=O)c1cnc(Cl)c(Cl)c1)NCCC1=CCCCC1,17,9,1.4,-16%,2,0,1.4
CC1CCC/C(=C\Nc2ccc(O)cc2)C1=O (centres undefined),4.0,2,-2.6,17µM*,99*,8,3.3
Cc1sc2nc(COC(=O)c3ccc(Cl)c(N)c3)[nH]c(=O)c2c1C,8.9,-6,-3.7,-3%,-4,-11,6.0
COc1ccc(CC(=O)NC2CCN(Cc3nnnn3C(C)(C)C)CC2)cc1OC,-0.6,-6,0.3,-1%,-9,-4,?
COc1ccc(C2=CC(=O)C[C@H](c3ccc(Cl)cc3)C2)cn1,-2.7,.,-3.5,.,-1,18,.

Looked up one by one from the list above:
SMILES,HNF4A DNA FP,Calb FLC,LANA-H2B inh,Vif TR-FRET,ALR inh,Beta2AR agonist,RanGTP-Impb inh
COc1cc2c(cc1NC(=O)CSc1ccc(C)cc1)oc1ccccc12,2.0,-13,-4.4,-1%,-6,-1,-1.1
O=C(Nc1ccc2snnc2c1)N1CCN(c2ccccc2)CC1,-0.4,-5,-2.6,20%,99*,-12,2.6
O=C(Cn1c(=O)c2cccn2c2cccnc21)NCCCN1CCN(c2ccc(F)cc2)CC1,0.5,-4,5.6,.,19,-4,32*
Cn1c(=O)c2cc(S(=O)(=O)NCCC(=O)NCc3ccccc3Cl)ccc2n(C)c1=O,1.5,-2,-1.3,7%&9%,-7,3,-1.9

New compounds follow.
SMILES,HNF4A DNA FP,Calb FLC,LANA-H2B inh,Vif TR-FRET,ALR inh,Beta2AR agonist,RanGTP-Impb inh
COCCCNC(=O)CCc1nnc2ccc(N3CCC(C)CC3)nn12,1.5,0,0.1,-5%,3,-14,2.0
NNC(=O)c1ccc(Cn2cc(Cl)cn2)cc1,1.9,30,2.3,-5%,-7,2,2.0
S=c1[nH]nc(COc2ccc(Cl)cc2)n1C1CCCCC1,-0.9,12,0.9,.,.,-6,2.3
COc1ccc(NC(=O)COc2ccc(CNCCCN3CCOCC3)cc2OC)cc1,-3.8,-9,2.8,2%,1,0,2.7
COCc1cc(C)nc(SCC(=O)Nc2cccc3cccnc23)c1C#N,2.1,2,9.2,10%,-7,4,3.6
COc1ccc(C(=S)N2CCOCC2)cc1OC(=O)c1ccc([N+](=O)[O-])cc1,-0.3,5,0.9,.,.,0,-5.1
O=C(NN1S(=O)(=O)c2ccccc2S1(=O)=O)c1ccc(Br)cc1,2.5,-2,-11,0%,4,-4,?
CCCSCCCNC(=O)Cn1c(=O)c2cccn2c2ccccc21,-1.5,-3,2.8,-13%,-10,-2,0.4
FC(F)(F)c1ccc2c(c1)N1CCCC1CN2 (centres undefined),25,-4,-1.5,.,34,-8,-13
CC(C)(C)c1ccc(SCCc2cccnc2)cc1,7.1,-9,14*,.,.,-8,-6.1

(further entries)
SMILES,HNF4A DNA FP,Calb FLC,LANA-H2B inh,Vif TR-FRET,ALR inh,Beta2AR agonist,RanGTP-Impb inh
CCn1c(SCC(=O)N/N=C/C(C)=C\c2ccco2)nnc1-c1ccccc1,-2.1,-8,-5.0,21%,-10,-7,?
COc1ccc(/C=N/NC(=S)N[C@H]2CC3CCC2C3)cc1 (some centres undefined),-1.8,2,1.5,-8%,0,2,-3.1
CC(Sc1ccc(Cl)cc1)C(=O)NCc1ccc2c(c1)OCO2 (centres undefined),2.2,97*,-1.7,?,-14,12,5.0
CN1C[C@H](C(=O)NC2(C)OC3(O)[C@@H]4CCCN4C(=O)[C@H](Cc4ccccc4)N3C2=O)CC2c3cccc4[nH]cc(c34)C[C@H]21 (some centres undefined),-3.8,7,-0.9,.,-3,.,-5.7
Fc1ccc(Cn2nnc(-c3ccc(CN4CCOCC4)cc3)n2)cc1,2.9,4,-1.6,?,.,7,6.0
COc1cc(NC(=O)CSc2nc(C)cc(C)n2)cc(OC)c1OC,1.2,-23,7.5,-5%,-3,-7,-0.7
O=C1C=C(NC2CCCCC2)CCC1,2.7,-2,-19,.,19,-6,0.1
BrC(=C\c1ccccc1)/C=N/Nc1ccc2nncn2n1,0.9,-4,-2.2,-4%,-3,0,-1.6
c1ccc2c(c1)OCCOCCOc1ccccc1OCCOCCO2,2.5,7,-2.6,6%,-12,-13,0.4
O=C(Nc1ccc(N2CCOCC2)cc1N1CCOCC1)c1cccc([N+](=O)[O-])c1,-1.4,-2,4.2,.,49,-4,1.7

Continued.
SMILES,HNF4A DNA FP,Calb FLC,LANA-H2B inh,Vif TR-FRET,ALR inh,Beta2AR agonist,RanGTP-Impb inh
Cc1ccc(S(=O)(=O)NCc2ccc(C(=O)NCCCN3CCC(Cc4ccccc4)CC3)cc2)cc1,4.6,-16,-2.2,-5%,.,1,5.5
O=C(Nc1ccc2c(c1)C(=O)NC2=O)c1cccc(C(F)(F)F)c1,2.0,-2,-0.9,.,-1,-4,0.9
Cc1ccc(OCCOC(=O)Cn2nc(C)c([N+](=O)[O-])c2C)cc1,-0.2,10,1.9,.,32,-11,4.2
O=C(Cn1nc(C(=O)O)c2ccccc2c1=O)Nc1cccc(S(=O)(=O)N2CCCC2)c1,-7.0,.,.,3%,.,-3,.
CCS(=O)(=O)c1ccc2oc(SCC(=O)Nc3ccc(OC)cc3)nc2c1,-1.9,-2,-0.2,2%,.,-10,1.5
CCOC(=O)c1sc(NC(=O)CCN2CCCCCC2)c(C(=O)OCC)c1C,2.2,-30,3.3,.,97*,4,-2.9
COc1ccc(CCNc2nc(-c3ccc(O)cc3)cs2)cc1OC,0.7,-13,-3.4,.,1,15,0.1
O=C(NNC(=O)c1ccc(-n2cncn2)c([N+](=O)[O-])c1)c1ccc(Cl)cc1,-0.6,.,3.5,3%,-5,-7,4.6
CC(C)Oc1ccc(OCCNC2CCCC2)cc1,-1.8,-26,-2.3,-2%,-5,3,-0.7
CC1CCN(S(=O)(=O)c2ccc3c(c2)N(C)C(=O)CC(=O)N3C)CC1,2.6,-4,-2.5,-5%,0,0,2.9
COc1cc(C(=O)NCC2CCCO2)ccc1OCc1ccccc1Cl (centres undefined),-0.8,16,-2.8,.,3,7,5.2
